# ClpP mod = qHTS Assay for Activators of ClpP. ATP-dependent Clp protease proteolytic subunit (Bacillus subtilis (strain 168)), P80244. purified B. subtilis ClpP, FRET peptide cleavage, 20 min. Potency, µM (doses to about 57.5 µM), without a hit: top-dose activity change, negative = active. 1.9% of 340,000 active; active = well fitted falling curve with a large enough effect; inconclusive = small, poorly fitted or top-dose-only effect; inactive = no such curve, though single readings can be large or run the other way; further: potency means the concentration at half of the fitted maximal effect; the source files actives as falling curves though it sought activators and does not explain the sign; nearly all actives have a fitted effect of over 65% in size; many hits overshoot -100%
# Target sequence (P80244 whole entry, looked up): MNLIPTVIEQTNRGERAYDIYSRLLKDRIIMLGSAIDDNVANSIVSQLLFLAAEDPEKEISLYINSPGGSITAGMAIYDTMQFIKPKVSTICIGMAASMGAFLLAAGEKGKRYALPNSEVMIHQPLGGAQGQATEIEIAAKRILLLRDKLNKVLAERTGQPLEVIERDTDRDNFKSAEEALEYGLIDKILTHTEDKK
#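 Buffer: 100 mM Tris/HCl pH8, 100 mM KCl, 0.05% low protease BSA, 2.5% glycerol, 0.01% Tween-20. ClpP 10 microg/mL final; 20 min RT; delta FRET normalized to ADEP and DMSO controls.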
# Sfp inh = qHTS Assay for Inhibitors of Bacillus subtilis Sfp phosphopantetheinyl transferase (PPTase) | AID 1490, 2009 | 4'-phosphopantetheinyl transferase ffp (Bacillus subtilis), Q9F4F7 | 3.5% of 310,000 active | Biochemical Sfp PPTase activity, qHTS | Potency, µM, for the others: max response, negative = inhibition, actives largely listed as inhibitors; active means well fitted inhibition curve with a large enough effect; inconclusive means small, poorly fitted or top-dose-only effect, or another doubt; inactive means no such curve, though single readings can be large or run the other way;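 further: the enzyme is Sfp with the accession as filed and its product quenches rhodamine fluorescence; potency means the concentration at half of the fitted maximal effect; 0% = enzyme reaction without inhibitor and -100% = no enzyme wells; top concentration of the series not given in the record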
#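 Sfp 15 nM + cpd, 15 min RT; start w/ rhodamine-CoA 5 uM, BHQ-2-YbbR 12.5 uM (final); 50 mM Hepes pH 7.6, 10 mM MgCl2, 0.01% NP-40, 0.01% BSA; read 525/598 nm at 0 and 30 min.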
# PINK1 expr mod = A Quantitative High throughput Screen to Identify Chemical Modulators of PINK1 Expression; PINK1 immunofluorescence, high-content cytometry, 24 h; Potency, µM (doses to about 76.6 µM), for the others: at the highest dose activation (PINK1 increase), actives largely listed as activators; 0.2% of 410,000 active; AID 624263, 2012; active = well fitted activation curve with a large enough effect; inconclusive = small, poorly fitted or top-dose-only effect; inactive = flat fitted curve, though single readings scatter; cell line not stated here;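 further: potency means the concentration at half of the fitted maximal effect; % of control where 0% means no effect; nearly all actives have a fitted effect of over 65% in size; a mitochondrial uncoupler was the plate control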
#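 PINK1 protein level read as immunofluorescence by microplate cytometer in a fixed, stained stable cell line after 24 h exposure to five compound concentrations, with CCCP as control.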
# Menin MLL FP FL = qHTS Assay for Inhibitors Targeting the Menin-MLL Interaction in MLL Related Leukemias: Competition With Fluorescein Labeled MLL-derived Peptide; AID 1766, 2009; Fluorescence polarization, fluorescein-MLL peptide displacement from menin; 290,000 tested, under 10 active; FP activity change, % at 61.4 µM; inconclusive = falling polarisation curve, or a change in total fluorescence; inactive = total fluorescence flat and polarisation flat or rising; no compound was filed as active; the % refers to the polarisation; negative = inhibition;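 further: % of control where 0% means no effect; inhibitors lower the polarisation; unlabelled MLL peptide was the positive control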
# TRPML1 inh = qHTS for Inhibitors of the Human Mucolipin Transient Receptor Potential 1 (TRPML1); TRPML1-inducible cells, Ca2+ dye fluorescence, FDSS; hits give low values; inhibition of EC80 agonist-evoked calcium signal; activity change, negative = inhibition, % (test concentration not listed); 0.02% of 390,000 active; in the data active means activity change below about -50%; inconclusive means about -30% to -50%; inactive means above about -30%;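 further: stimulus is agonist 54-4 at its EC80 concentration; on the % scale 0 is the no-effect control and ±100 the full control effect; compound concentration not given in the record; the text of the record puts the active cut at -80%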
#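 TRPML1-DL cells, Tet-induced overnight (~16 h, 37 °C) at 1,500 cells/well, were loaded with Ca8 no-wash dye plus quencher for 45-90 min at room temperature. Compounds were pinned during FDSS kinetic reading; agonist 54-4 at EC80 (4 uM final) then added.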
# TRPV1 PAM = HTS Assay for Compounds that Act as Potentiators of the Vanilloid Receptor 1 | Transient receptor potential cation channel subfamily V member 1 (Homo sapiens), Q8NER1 | TRPV1-expressing cells, Fluo-8 calcium influx, capsaicin EC20 potentiation; host cell line not named in the record; control for the full effect not named in the record | AID 540277, 2011 | potentiation, % at 8.33 µM | 0.02% of 320,000 active; active means potentiation above 80%; inconclusive means 30% to 80%; inactive means below 30%; further: 0% is about no effect
# Target sequence (Q8NER1 whole entry, looked up): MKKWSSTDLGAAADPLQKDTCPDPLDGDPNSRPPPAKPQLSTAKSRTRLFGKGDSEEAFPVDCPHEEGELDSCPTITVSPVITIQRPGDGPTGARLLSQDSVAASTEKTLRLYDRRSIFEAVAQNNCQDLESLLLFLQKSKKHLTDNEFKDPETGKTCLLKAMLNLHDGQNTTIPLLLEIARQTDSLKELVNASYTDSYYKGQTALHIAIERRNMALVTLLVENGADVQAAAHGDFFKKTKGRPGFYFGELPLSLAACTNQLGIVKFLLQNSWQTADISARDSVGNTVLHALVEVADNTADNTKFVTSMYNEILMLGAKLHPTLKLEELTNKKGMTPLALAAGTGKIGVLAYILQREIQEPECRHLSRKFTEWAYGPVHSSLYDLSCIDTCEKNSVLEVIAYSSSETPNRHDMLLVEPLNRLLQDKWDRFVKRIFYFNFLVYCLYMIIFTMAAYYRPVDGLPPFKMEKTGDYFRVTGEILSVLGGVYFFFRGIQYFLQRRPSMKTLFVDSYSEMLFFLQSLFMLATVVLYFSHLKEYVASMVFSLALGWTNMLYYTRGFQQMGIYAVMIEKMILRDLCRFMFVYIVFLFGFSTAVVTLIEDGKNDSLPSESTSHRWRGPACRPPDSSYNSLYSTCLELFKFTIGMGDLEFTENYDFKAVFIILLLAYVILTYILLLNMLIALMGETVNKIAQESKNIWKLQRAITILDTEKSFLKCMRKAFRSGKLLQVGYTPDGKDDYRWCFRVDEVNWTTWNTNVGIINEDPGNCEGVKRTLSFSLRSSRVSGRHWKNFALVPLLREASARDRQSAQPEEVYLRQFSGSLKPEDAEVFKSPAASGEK
#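 TRPV1-expressing cells were cultured overnight at 35.5C and loaded with Fluo-8 calcium dye for 40 to 90 min at room temperature. After a 10 s baseline, compound was added and calcium influx was read kinetically for 3 min (ex 480/em 520 nm).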
# TRPML1 ag = qHTS for Agonists of the Human Mucolipin Transient Receptor Potential 1 (TRPML1) | Mucolipin-1 (Homo sapiens), Q9GZU1 | TRPML1-expressing cells, Ca2+ dye fluorescence, FDSS; host cell line not named in the record; reference of the full effect not given here | activation, % (no concentration beside the values) | 0.12% of 410,000 active; in the data active = activation above about 50%; inconclusive = about 30% to 50%; inactive = below about 30%; further: 0% is about no effect; the text of the record puts the active cut at 80%
#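 Cells: TRPML1-DL, 1X Tet inducer, ~16 h at 37 degrees C/5% CO2. Dye: ABD Ca8 no-wash + quencher, 45-90 min RT. Read: 10 s baseline, compound add, 110 s agonist phase; 54-4 EC80 (4uM final), 110 s antagonist phase.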
# * marks the source's active call; other numbers are inactive results; ? = inconclusive; . = not tested or not shown; & = joins results of further samples; [ ] = remark or other dose.
Compound	TRPV1 PAM	Menin MLL FP FL	TRPML1 ag	PINK1 expr mod	TRPML1 inh	ClpP mod	Sfp inh
Cc1ccc(C(=O)N/C(=C/c2ccc(F)cc2)C(=O)NCc2ccncc2)cc1	3	4.8	-0.7	-0.8%	-7	-0.6%	0%
COc1ccc(CCN2CCCC(CN(C)Cc3cc(OC)ccc3OC)C2)cc1 (configuration not stated)	-4	-4.4	-0.5	1.7%	?	0.0%	14%
COc1ccc(C(C)C)cc1S(=O)(=O)Nc1ccc(Cl)cn1	-17	-0.3	2.6	-1.1%	8	-0.1%	5%
Cc1ccc(C(c2c(C)nn(-c3ccccc3)c2N)c2c(C)nn(-c3ccccc3)c2N)cc1	-4	3.9	-0.7	-0.9%	27	3.3%	-13%
COc1cccc(CNC(=O)CCNS(=O)(=O)c2ccc3c(c2)oc(=O)n3C)c1	-2	.	-0.2&-0.7	0.8%&0.5%	-23&-22	1.4%&0.7%	12%
CCC(C)C(NC(N)=O)C(=O)Nc1ccc(C(=O)OC)cc1 (configuration not stated)	1	1.9	0.3	2.7%	8	.	3%
COc1cccc(CNCc2ccc(C(=O)O)cc2)c1OC	-12	-4.4	0.8	-1.8%	-6	.	12%
CCN1CCN(c2ccc(S(=O)(=O)N3CCCCC3)cc2NC(=O)COc2ccc(Cl)cc2)CC1	-9	.	0.7	0.6%	12	?	.
O=C(O)C(=O)/C(=C\c1ccccc1)c1ccc2ccccc2n1	-5	?	3.6	-1.9%	4	?	-1%
O=C(COCc1nc2ccccc2c(=O)[nH]1)NCC1CCCCC1	7	4.0	-0.4	.	-10	0.2%	12%
Cc1cccc(OCCSCc2nc3ccccc3[nH]2)c1	-17	1.6	2.3	2.9%	18	-3.0%	-1%
Cc1cc(OCC(=O)NCc2cccnc2)c2c(C)c(Cc3ccccc3)c(=O)oc2c1	-7	3.0	1.3	1.3%	2	3.2%	0%
COc1ccccc1NC(=O)Nc1cc(NC(=O)Nc2ccccc2OC)c(C)nc1C	-20	2.2	0.1	6.7%	33	-1.2%	23%
O=C(CCCC(=O)N(CC(=O)NC1CCCCC1)c1ccccc1F)Nc1ccccn1	8	0.0	1.9	1.0%	0	.	3%
COc1ccc(Cl)cc1NC(=O)CCCN1C(=O)CCC1=O	6	-1.5	-0.2	6.1%[38.3 µM]	-8	-0.6%	-2%
CCOC(=O)c1ccc(NC(=S)N(CCCN2CCCC2)Cc2cccs2)cc1	-2	3.2	1.9	3.9%	-1	.	14%
Cc1ccc(N2C(=O)N(CC(=O)N3CCc4ccccc43)C(=O)C2C)cc1 (configuration not stated)	.	.	-0.8	0.2%	2	-0.9%	.
COc1ccc(S(=O)(=O)N2CCN(CC(=O)NC3CCCC3)CC2)cc1	-1	-2.6	-0.5	0.3%	-24	.	3%
COc1ccc2c(Sc3ccc(Cl)cc3)c(C(=O)N3CCCCC3)[nH]c2c1	.	.	-0.1	2.0%	41	-6.6%	.
Cc1cc(C(=O)CN2C(=O)C(=O)N(CC(C)C)C2=O)c(C)n1-c1ccccc1F	-3	-0.3	0.9	0.8%	-5	.	5%
Cc1ccccc1Cn1nc(C)c(NC(=O)/C=C/c2cnn(C)c2C)c1C	10	2.0	0.8	6.0%	15	-1.2%	21%
CCOc1cc(/C=N/NC(=O)COc2ccc(C)cc2)ccc1OC(=O)c1cccs1	.	-0.6	0.9	.	0	-0.5%	12%
Cc1ccc2c(c1)c(=O)c(C(=O)c1ccncc1)cn2CC(=O)Nc1c(C)cccc1C	.	.	-0.5	0.9%	-6	-4.6%	.
O=C(CN1CCC(NC(=O)c2cccc(F)c2)CC1)NCc1ccccc1F	-11	3.5	-0.2	1.8%	-5	-2.5%	5%
O=C(/C=C/c1ccc(OC(F)F)cc1)OCC(=O)N1CCc2ccccc21	15	.	1.4	5.2%	-5	0.6%	.
CCC(Oc1ccccc1)C(=O)NC1CCSC1=O (configuration not stated)	6	0.0	-0.5	-1.0%	-20	.	12%
CCN(C(=O)CSc1ncnc2sccc12)c1c(N)n(Cc2ccccc2)c(=O)[nH]c1=O	11	.	-0.2	1.4%	2	-1.2%	.
CCN(CC)S(=O)(=O)c1ccc(NC2c3ncccc3C(=O)N2Cc2ccccc2)cc1 (configuration not stated)	-8	4.9	-0.4	-1.5%[38.3 µM]	8	-1.0%	-25%
COc1cccc(NC(=O)CCS(=O)(=O)c2ccc(Br)cc2)c1	0	-2.8	-1.0	-1.5%	-9	-0.3%	8%
Cc1ccc(-c2nnc(SCCC(=O)N3CCOCC3)o2)cc1	3	-2.7	0.0	-0.9%	-9	-8.1%	11%
CCOCCCNC(=O)C1(O)c2ccccc2NC(=O)N1c1ccc(Cl)cc1 (configuration not stated)	-7	-1.5	2.3	-2.5%	21	-0.5%	2%
C/C(=N\NC(=O)CSc1nnc(C)s1)c1ccc(O)cc1	0	.	-0.1	0.4%	6	-2.2%	-7%
COc1ccc(/C=C(/NC(=O)c2ccccc2)C(=O)NCc2ccncc2)cc1	24	0.5	-0.5	0.5%	13	-3.3%	8%
CCCCNC(=S)N(C)/N=C/c1ccccc1F	-6	4.0	2.9	5.2%	66	0.5%	-4%
CC1Cc2ccccc2N1C(=O)COC(=O)c1ccccc1NCCO (configuration not stated)	1	.	-0.5	-0.1%	-6	-2.0%	.
CC1(c2cccs2)CC(c2cccs2)=C(C#N)C(=O)N1 (configuration not stated)	-10	?	0.8	-0.4%[38.3 µM]	11	-2.0%	-1%
Cc1c(C(N)=O)c(N)c(C(=O)c2ccccc2)n1-c1ccccc1	1	-0.9	-1.5	0.7%	3	0.5%	8%
CN(c1ccc(C(=O)Nc2ccc(S(=O)(=O)N3CCCC3)cc2)cc1)S(C)(=O)=O	-25	-0.1	-0.2	0.5%	15	.	7%
CCC(C)C(NC(=O)C1CCC(C)CC1)C(=O)Nc1cc(OC)ccc1OC (configuration not stated)	-5	7.3	-0.1	?	5	-0.5%	8%
Cn1c(CN2CCCC(C(=O)c3ccc4c(c3)OCO4)C2)nc2ccccc21 (configuration not stated)	0	-0.3	-0.7	1.2%	13	.	9%
O=C(Nc1cccc(Cl)c1)c1ccccc1NC(=O)C1CCCCC1C(=O)O (configuration not stated)	12	-5.0	-0.7	-0.7%	38	-0.4%	10%
COc1ccc(OCCC(=O)OCC(=O)NCc2ccco2)cc1	3	0.2	-1.4	0.5%	-11	0.1%	?
O=C(CCNS(=O)(=O)c1ccc2c(c1)CCN2C(=O)C1CC1)Nc1ccc(OC(F)(F)F)cc1	.	.	0.5	-4.9%	7	2.6%	.
NNC(=S)NC1CC2CC1C1C=CCC21 (configuration not stated)	4	-2.0	1.0	-1.6%	-14	-1.4%	28%
CCN(CC)S(=O)(=O)c1ccc(NS(=O)(=O)c2ccc(OC)c([N+](=O)[O-])c2)cc1	-3	0.7	2.3	0.4%	-9	-4.5%	7%
O=C(COc1ccc(F)cc1)Nc1ccccc1N1CCOCC1	-12	.	2.0	1.1%	4	1.0%	.
COc1ccc(C(=O)C/C(=C\C(=O)c2ccc(C)cc2)c2ccccc2)cc1	-5	4.1	0.5	25µM*	10	1.7%	9%
CN(C)C1=NCCN1CCCC1CCCC1	27	.	-0.1	-0.5%	-2	-2.5%	.
CCOc1cccc(NC(=O)c2ccc(S(=O)(=O)N(C)C)cc2)c1	-3	4.0	-1.2	1.5%	-2	0.7%	18%
O=S1(=O)N=C(Nc2ccc(N3CCOCC3)cc2)c2ccccc21	-1	2.9	0.1	?	22	-0.5%	7%
CCN(CC)C(=S)NC(=O)c1ccc(Cl)cc1Cl	3	-0.2	1.5	0.7%[38.3 µM]	45	-0.4%	-7%
COCCCNC(=O)Cn1c(=O)oc2cc(S(=O)(=O)N3CC(C)CC(C)C3)ccc21 (configuration not stated)	12	-1.6	6.6	-0.4%	1	1.6%	10%
O=C1CC(c2ccccc2)Sc2ccccc2N1 (configuration not stated)	-6	-0.3	0.6	.	-1	1.0%	-8%
O=C(Cn1c2ncccc2c(=O)n1-c1ccccc1)Nc1cccc(C(F)(F)F)c1	.	.	0.7	7.3%	28	4.0%	.
CCS(=O)(=O)c1ccc(C(=O)Nc2ccccc2)c(Cl)c1Cl	14	3.4	-0.7	1.0%	-3	0.9%	20%
O=c1c(-c2ccc(Cl)cc2)c(C(F)(F)F)oc2c(CN3CCCCC3)c(O)ccc12	.	.	-0.4	0.1%	4	-2.5%	.

# Later entries:
Compound	TRPV1 PAM	Menin MLL FP FL	TRPML1 ag	PINK1 expr mod	TRPML1 inh	ClpP mod	Sfp inh
Cc1cccc(NC(=O)c2cccc(S(=O)(=O)NCc3ccccc3)c2)n1	12	.	2.9	2.4%	29	2.0%	.
OCCC1CN(Cc2cccn2-c2ncccn2)CCN1C1CCCC1 (configuration not stated)	0	-8.6	0.6	-0.3%	14	-0.3%	3%
COc1ccc(C2C(C(=O)Nc3ccccc3OC)=C(C)Nc3nnnn32)c(OC)c1 (configuration not stated)	0	0.7	0.1	0.6%	-5	0.3%	10%
COCCNc1nnc(SCC(=O)N(C)c2c(N)n(Cc3ccccc3)c(=O)[nH]c2=O)s1	4	.	-0.7	0.4%	3	-5.7%	.
Cc1ccc(-c2noc(-c3ccccc3C(=O)N3CCOCC3)n2)cc1	6	1.8	1.5	18%[38.3 µM]	38	-2.3%	8%
CCCn1c(CCC(=O)Nc2ccc(C)c(Cl)c2)nc2cccnc21	.	.	1.9	3.3%	22	-6.2%	.
